Source: PubChem BioAssay
LANA-H2A inh – blockers of LANA interaction with H2A/H2B – biochemical, FP readout, HTS, primary screen; Protein LANA1 (Human herpesvirus 8 type P (isolate GK18)), Q9QR71; cell-free LANA-H2A/H2B peptide, fluorescence polarization; inhibition, % (test concentration not listed); 320,000 compounds, 0.6% hits; in the data active = inhibition mostly above about 10%, no sharp cut-off; inactive = mostly below about 6.7%;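 note: stock transfer was 7.5 nL into about 10 µL; 0% = median of vehicle wells and 100% = median of positive control wells; one replicate is shown; the record names a cut of 25% in any replicate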
Target sequence (Q9QR71 whole entry, looked up): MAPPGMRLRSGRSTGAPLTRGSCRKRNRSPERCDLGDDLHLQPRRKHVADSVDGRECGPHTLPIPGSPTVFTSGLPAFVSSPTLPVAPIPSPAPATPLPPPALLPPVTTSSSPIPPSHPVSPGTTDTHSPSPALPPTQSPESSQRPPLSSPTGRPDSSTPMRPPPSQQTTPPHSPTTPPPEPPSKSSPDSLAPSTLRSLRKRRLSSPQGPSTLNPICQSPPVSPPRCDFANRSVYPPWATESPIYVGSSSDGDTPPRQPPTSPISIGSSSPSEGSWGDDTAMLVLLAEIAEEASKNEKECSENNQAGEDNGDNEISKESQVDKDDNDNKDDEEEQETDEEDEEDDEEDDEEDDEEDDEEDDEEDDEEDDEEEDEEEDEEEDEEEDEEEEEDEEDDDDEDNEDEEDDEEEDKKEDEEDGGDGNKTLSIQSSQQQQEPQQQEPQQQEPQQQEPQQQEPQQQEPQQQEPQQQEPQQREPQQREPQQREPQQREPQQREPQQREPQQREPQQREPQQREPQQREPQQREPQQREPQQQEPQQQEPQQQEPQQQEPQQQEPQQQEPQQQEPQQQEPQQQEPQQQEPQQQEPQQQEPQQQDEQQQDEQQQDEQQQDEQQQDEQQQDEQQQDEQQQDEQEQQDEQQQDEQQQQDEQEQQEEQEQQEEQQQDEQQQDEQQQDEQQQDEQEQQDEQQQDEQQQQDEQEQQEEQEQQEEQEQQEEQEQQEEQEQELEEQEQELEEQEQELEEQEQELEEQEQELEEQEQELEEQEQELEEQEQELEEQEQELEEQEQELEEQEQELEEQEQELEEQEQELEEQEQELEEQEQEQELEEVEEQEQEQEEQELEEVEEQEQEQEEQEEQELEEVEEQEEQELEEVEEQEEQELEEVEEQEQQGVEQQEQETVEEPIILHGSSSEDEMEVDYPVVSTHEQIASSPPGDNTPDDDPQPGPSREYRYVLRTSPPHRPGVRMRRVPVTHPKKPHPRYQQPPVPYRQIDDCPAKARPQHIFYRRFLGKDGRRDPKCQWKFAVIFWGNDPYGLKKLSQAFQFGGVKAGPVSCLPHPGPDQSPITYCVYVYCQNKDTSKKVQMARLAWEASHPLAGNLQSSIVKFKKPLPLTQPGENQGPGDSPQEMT
RanGTP-Imp inh – inhibitors of RanGTP-importin-beta interaction, primary screen, biochemical, FRET, CFP-Ran, YFP-importin-beta, homogeneous; Ran GTPase (GTP-bound) - importin-beta complex; cell-free CFP-Ran/YFP-importin-beta FRET ratio; inhibition, % (concentration not given with the values); 300,000 compounds, 1.1% hits;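 active = most replicates above 15%; inconclusive = exactly half above 15%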;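 note: 0% = DMSO wells and 100% = Ran loaded with GDP instead of GTP; wells of about 40 µL received 100 nL stock; the first replicate is given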
T cruzi repl – inhibitors of intracellular T. cruzi growth, primary screen, luminescence, NIH3T3 host cells; 300,000 compounds, 1.4% hits; inhibition, % (concentration not given with the values); T. cruzi beta-gal in NIH3T3, 90 h;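 active = mean inhibition across valid replicates above about 55%, limit read from the data; inconclusive = mean below that limit but half or more replicates reach it; inactive = mean below it, under half of replicates reach it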;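 note: signal also drops with host cell toxicity which is not excluded here; 0% = plate median of DMSO wells and 100% = zero luminescence signal; higher percent means less beta-gal luminescence so fewer parasites; stock transfer was 50 nL into about 50 µL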
Calb FLC – C. albicans growth inhibition with fluconazole, primary screen, CaCi-2 strain, Alamar Blue fluorescence | growth inhibition, % (test concentration not listed) | AID 1979, 2009 | C. albicans CaCi-2 (fluconazole-resistant clinical isolate) + fluconazole, 48 h | 300,000 compounds, 0.57% hits;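 active = most replicates above 75%; inconclusive = exactly half above 75%; inactive = most below 75%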;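 note: all wells also contain fluconazole at 8 µg/ml as a sub-toxic cotreatment; 0% = median of DMSO wells and 100% = median of geldanamycin control wells; wells of about 8 µL received 7.5 nL stock; the first replicate is given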
MLL AF4-AF9 inh – inhibitors of AF4 peptide binding to AF9, primary screen, biochemical, AlphaScreen, biotin-AF4 peptide, FLAG-AF9, single point; Protein AF-9 (Homo sapiens), P42568; inhibition, % at 10 µM; 350,000 compounds, 0.47% hits; AID 651704, 2012;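 active = every replicate reaching a set inhibition limit, whatever the replicate mean, cut at about 25% in these data; inconclusive = mean inhibition reaches that limit but some replicates miss it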;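 note: 0% = plate neutral control median and 100% = total signal loss; the record names both 10 and 1 µM as test concentration; the first replicate is given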
Bfl-1 A1 inh – caspase 3/7 activation in MEF A1-2A-BIM cells, primary screen, A1 inhibitor project, cell-based, luminescence, HTS; 330,000 compounds, 0.066% hits; Caspase-Glo 3/7 luminescence, 3 h; percent of clofoctol response, vehicle zero; AID 2462, 2010; caspase activation, % (test concentration not listed);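 active = over half of replicate activation scores above 10%, or exactly half above 10 with the replicate mean above 10; inconclusive = replicate mean below 10 yet half the replicates above 10; inactive = over half of replicates below 10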;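 note: wells of about 30 µL received 50 nL stock; many hits fall short of the cut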
Beta apoptosis – inhibitors of cytokine-induced beta cell apoptosis, primary screen, luminescence | protection from apoptosis, % (concentration not given with the values) | INS-1E cytokine-induced death, ATP luminescence, 48 h; percent of positive-control rescue, neutral wells zero | 300,000 compounds, 0.8% hits;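 active = all replicates at 75% or more, or half of them and the mean; inconclusive = half reach 75% but not the mean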;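 note: 0% = cytokine-treated negative control wells and 100% = positive control rescue; higher means more ATP so stronger rescue from cytokine killing; wells of about 40 µL received 100 nL stock; the first replicate is given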
Vif A3G – inhibitors of Vif binding to APOBEC3G peptide, primary screen, biochemical, TR-FRET, GST-Vif 1-94, biotin-A3G peptide, dose response retest (AID 1117319); inhibition, %, or IC50 in µM where a hit was titrated; 260,000 compounds, 0.57% hits; TR-FRET GST-Vif / biotin-A3G peptide binding; higher % means a stronger effect; test concentration not given here; strong numbers were not always called active;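 active = above the screen mean plus three standard deviations and confirmed in dose response; inconclusive = results disagree or hit not tested in dose response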;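 note: Vif residues 1-94 fused to GST binding biotinylated APOBEC3G peptide 110-148; 0% = full assay without inhibitor and 100% = GST in place of GST-Vif; retest series ran down from 100 µM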
Numbers without * were called inactive; ? = inconclusive; . = no result given; & = joins results of further samples.

SMILES | LANA-H2A inh | RanGTP-Imp inh | T cruzi repl | Calb FLC | MLL AF4-AF9 inh | Bfl-1 A1 inh | Beta apoptosis | Vif A3G
CCOc1ccc(-n2c(C)c(C(C)=O)c3cc(O)ccc32)cc1 | -1.8 | -1.0 | -5 | 5 | 5.7 | -0.2 | -8 | 2%
C=C1C(=O)[C@@]23[C@H](O)C[C@@H]4C(C)(C)CC[C@H](O)[C@@]4(C)[C@@H]2CC[C@@H]1[C@H]3O | 1.9 | ? | 40 | -4 | . | -1.2 | 99* | -17%
O=C(NCc1ccncc1)c1cccc(S(=O)(=O)Nc2ccc(SC(F)F)cc2)c1 | -1.4 | -3.4 | 5 | . | 1.7 | 0.2 | 4 | 7%
Cc1nn(-c2ccccc2)c(/N=C/c2ccc(O)cc2)c1-c1ccccc1 | -3.8 | 5.3 | -18 | -11 | 2.5 | -0.7 | -2 | .
COc1cccc(CC(=O)N2CCCC(CO)(Cc3ccc(F)cc3F)C2)c1 (stereo not given) | -1.7 | 2.1 | 4 | 17 | -2.2 | -0.5 | . | 40%
Cc1ccc(-c2noc(CNC(=O)COc3ccccc3C)n2)cc1 | 4.6 | 5.1 | 5 | 2 | -1.8 | 0.4 | -5 | .
O=C(Cn1cnc(Cl)c1Cl)c1ccccc1 | -3.1 | 4.4 | 1 | -16 | -1.4 | 0.7 | -4 | .
Cc1ccc(S(=O)(=O)N2CCOC2CNC(=O)C(=O)NCCc2ccccc2)cc1 (stereo not given) | 0.9 | 0.0 | -3 | -3 | -14 | 0.7 | 1 | -2%
CCN(CC)S(=O)(=O)c1ccc2c(c1)nc(CCC(=O)Nc1ccc3c(c1)OCO3)n2C | -0.3 | 2.3 | 15 | 17 | . | -0.4 | -7 | 19%
Cc1ccccc1-c1nnc(SCC(=O)NCC2CCCO2)o1 (stereo not given) | 0.8 | . | . | . | -0.2 | 0.4 | -2 | .
O=C1CCN(Cc2ccccc2)S(=O)(=O)c2ccc(C(F)(F)F)cc21 | -4.9 | . | . | . | -7.1 | 1.9 | -3 | .
CNS(=O)(=O)c1cccc(C(=O)Nc2cccnc2)c1 | 0.6 | 2.4 | 0 | 6 | . | 2.0 | -11 | 2%
CCOc1ccc(C(=O)Nc2ccc3c(c2)C(=O)NC3=O)cc1 | -1.2 | 6.8 | 3 | -5 | 3.9 | 0.0 | -3 | .
CCOC(=O)c1c(C)n(OCc2ccccc2)c2ccc3c(no[n+]3[O-])c12 | -7.1 | -1.8 | 5 | 0 | . | 0.2 | . | 5%
O=C(c1ccccc1)N1CCN(c2ccc([N+](=O)[O-])c(NCc3cccnc3)c2)CC1 | 6.4 | 0.3 | 36 | 1 | 5.9 | -0.1 | 7 | .
Cc1ccc(C(=O)/C=C/c2ccc3c(c2)OCO3)o1 | 7.4 | -19 | -15 | -8 | 4.5 | 0.7 | -1 | ?
CCN(C(=O)COC(=O)c1ccc2c(c1)OCO2)c1ccc(F)cc1 | -0.2 | . | . | . | -12 | -0.1 | -4 | 6%
CC(C)c1nc(SCC(=O)Nc2ccc3c(c2)OCO3)n[nH]1 | 2.5 | 1.5 | -6 | -2 | . | 0.2 | 1 | 25%
CCn1ccnc1C(O)c1ccc(N(C)C)cc1 (stereo not given) | 2.7 | 2.5 | -4 | -2 | . | -0.1 | -11 | 1%
Cc1ccc(C)c(C(=O)NC2CC(C)(C)NC(C)(C)C2)c1 | 1.3 | -0.2 | 8 | 5 | . | 0.6 | -2 | -3%
Cc1ccc(C(=O)C(C)OC(=O)CN2C(=O)NC3(CCCC3)C2=O)cc1 (stereo not given) | 16 | -3.5 | -18 | 4 | -5.4 | -0.3 | -5 | 4%
Cc1cc(C)c(NC(=O)c2ccc(S(=O)(=O)N(C)C)cc2)c(C)n1 | 2.7 | 3.1 | -11 | -6 | 1.7 | -0.2 | -1 | 26%
O=C(CN1C(=O)NC(Cc2c[nH]c3ccccc23)C1=O)Nc1cccc(S(=O)(=O)N2CCOCC2)c1 (stereo not given) | 25* | ? | -3 | -3 | 2.1 | 0.5 | -2 | .
COc1cccc(OC)c1/C(O)=C(\C#N)c1nc2ccccc2[nH]1 | 1.5 | -7.0 | 13 | 3 | ? | 0.0 | -8 | 9%
O=[N+]([O-])c1cc(-c2n[nH]c(-c3ccccc3)n2)cc([N+](=O)[O-])c1 | 4.5 | 2.1 | 72* | 27 | 4.9 | 0.0 | 4 | 24%
Next entries:
SMILES | LANA-H2A inh | RanGTP-Imp inh | T cruzi repl | Calb FLC | MLL AF4-AF9 inh | Bfl-1 A1 inh | Beta apoptosis | Vif A3G
COC(=O)C(=Cc1ccc(OCc2ccc([N+](=O)[O-])cc2)c(OC)c1)C(=O)OC | 2.7 | 2.8 | -15 | 7 | . | -0.3 | -9 | 3%
CC(=O)C1=C(O)C(=O)N(CCC(=O)O)C1c1ccccc1[N+](=O)[O-] (stereo not given) | 5.6 | 0.1 | 5 | -2 | -1.6 | -0.4 | . | 7%
Cc1nc2ccc(N3C(=O)CCC3=O)cc2[nH]1 | -2.1 | -1.4 | 5 | -5 | . | 0.1 | -7 | 0%
O=C(N=Nc1c(O)[nH]c2ccc([N+](=O)[O-])cc12)c1ccccc1Cl | 2.3 | -2.3 | 0 | -5 | -18 | 0.8 | 7 | .
COC(=O)c1ccc(OCC(O)CN2C(=O)NC(C)(C)C2=O)cc1 (stereo not given) | . | 2.0 | -12 | 4 | . | . | . | -1%
CCOC(=O)NC(=O)CSc1nc2ccc(OCC)cc2[nH]1 | 1.8 | 2.7 | -8 | -1 | . | 0.2 | -7 | 0%
COc1cc(CC(=O)OCC(=O)NC2CCCCC2)cc(OC)c1OC | 0.9 | 0.5 | -2 | 6 | -0.8 | 0.6 | -2 | 4%
CCCN1Cc2cccc(C(=O)Nc3ccc(CN4CCCC4)cc3)c2C1=O | -1.0 | 5.2 | 49 | -4 | . | -0.5 | -12 | -10%
O=C(CCCc1ccccc1)Nc1ccc(Br)cc1F | -3.8 | -1.3 | ? | -8 | . | 0.2 | -7 | .
Cc1ccc(C2c3sc(=O)[nH]c3SC3C(=O)NC(=O)C32)cc1 (stereo not given) | 5.5 | -2.1 | -20 | 4 | . | 0.0 | -6 | 14%
CNC(=O)NC(=O)CSc1nc(-c2cccs2)c(C#N)c(=O)[nH]1 | . | 7.2 | 9 | 11 | -1.0 | . | . | -146%
CN(c1ccccc1)S(=O)(=O)c1ccc(C(=O)Nc2ncccc2O)cc1 | -1.2 | ? | -1 | -6 | -13 | -0.7 | 1 | 16%
CCOC(=O)C1=NOC(CNC(=O)c2c(-c3ccccc3Cl)noc2C)C1 (stereo not given) | 2.3 | -1.0 | -3 | 0 | . | -0.4 | -9 | 2%
COc1ccc(/C=N\NC(=O)CNC(=O)C(c2ccccc2)c2ccccc2)cc1[N+](=O)[O-] | -5.0 | -3.0 | -12 | -9 | 4.7 | -0.2 | -3 | 2%
N#Cc1cc(N)c(Nc2ccccc2)cc1C#N | 4.2 | -4.1 | 11 | -1 | . | 1.6 | 13 | 1%
Cc1ccc(-c2cc(C(=O)N3CCCCCC3)no2)cc1 | 2.6 | 0.1 | 8 | 4 | -0.6 | 0.4 | 4 | .
COc1ccccc1Nc1nnc(SCc2cc(=O)n3cc(C)ccc3n2)s1 | 2.7 | -0.8 | -1 | -15 | -0.8 | -0.2 | -6 | .
Cc1ccc(OCCCCN2CCCCC2)cc1 | -4.4 | -3.5 | -23 | -4 | 0.1 | 0.9 | 1 | -1%
O=C(c1cc2ccccc2s1)N1CCOCC1 | 2.8 | 3.2 | -27 | 0 | -5.4 | -0.5 | 1 | .
N/C(=N\OC(=O)c1csnn1)c1ccc(C(F)(F)F)cc1 | -3.2 | 2.5 | 7 | 12 | -1.0 | -0.5 | -5 | -5%
O=C(Nc1ccc(Cl)cc1C(=O)N1CCCCC1)c1ccco1 | 1.6 | -0.1 | -5 | 2 | 1.3 | 1.0 | -1 | .
COc1cccc(CC(NC(C)=O)C(=O)NC2CCN(c3nnnn3-c3ccccc3)CC2)c1 (stereo not given) | 3.1 | 3.5 | 5 | -2 | . | 0.9 | -4 | -10%
CNC[C@H]1Oc2c(NC(=O)C3CC3)cccc2C(=O)N([C@H](C)CO)C[C@@H]1C | 7.9 | . | . | . | -2.8&4.3 | -0.2 | 5 | .
CCOC(=O)c1ccc(NC(=O)c2c(N)n(C)c(=O)n(C)c2=O)cc1 | 0.0 | 4.9 | -6 | -2 | . | -1.5 | 3 | .
O=C(C1CCCN(c2ncnc3c2nc2n3CCCCC2)C1)N1CCCCC1 (stereo not given) | -1.7 | 0.1 | 2 | -19 | 1.5 | -0.6 | 0 | .
Other results.
SMILES | LANA-H2A inh | RanGTP-Imp inh | T cruzi repl | Calb FLC | MLL AF4-AF9 inh | Bfl-1 A1 inh | Beta apoptosis | Vif A3G
COc1ccc(N(CC(O)Cn2nnc3ccccc32)S(=O)(=O)c2ccc(C)cc2)cc1 (stereo not given) | -0.6 | -4.0 | -1 | -1 | 4.5 | 0.2 | -3 | 1%&-2%
COc1cccc(N2CCN(CC(=O)Nc3nnc(-c4ccccc4)s3)CC2)c1 | 0.3 | 0.6 | 28 | -4 | . | -0.3 | -6 | -3%
CCOc1ccccc1NC(=O)COC(=O)/C=C/c1cccs1 | -0.4 | . | . | . | -2.3 | 0.3 | -9 | 0%
N#C/C(C(=O)N1CCOCC1)=C1/SC(Cc2ccccc2Cl)C(=O)N1c1ccccc1 (stereo not given) | -2.7 | -2.2 | -7 | -7 | 0.8 | 0.4 | -5 | -4%
COCCN1C(=O)C(=O)/C(=C(/O)c2ccc(C)cc2)C1c1ccccn1 (stereo not given) | -2.4 | 5.4 | -15 | -6 | -1.3 | 0.4 | -3 | 6%
Cc1[nH]c2ccc(F)cc2c1CCN(Cc1cccnc1)C(=S)Nc1ccccc1 | 0.7 | 4.8 | 60* | -5 | 8.4 | -0.7 | -6 | -4%
CC(C)(C)OC(=O)CNC(=O)c1[nH]cnc1C(=O)N[C@@H](Cc1ccccc1)C(=O)OCc1ccccc1 | 1.3 | 3.4 | -6 | 4 | 0.7 | -0.4 | -9 | .
CCOc1ccc(OCC)c(NC(=O)C2CCCN2S(=O)(=O)c2cccc3cccnc23)c1 (stereo not given) | 1.0 | 0.1 | 4 | 27 | 0.5 | -0.7 | . | -7%
CCN(CC)c1ccc(/C=N/NC(=O)c2ccc(Br)o2)cc1 | 1.7 | 1.4 | 1 | 23 | 12 | -4.6 | 2 | ?
C=CC[C@@H](CC(=O)N(CCO)Cc1ccccc1)C(=O)N[C@H](COC(=O)[C@@H](CC=C)Cc1ccc(F)cc1)C(C)(C)C | -9.1 | . | . | . | -3.6 | 1.4 | -5 | .
